# SARS PLpro yeast = qHTS of Yeast-based Assay for SARS-CoV PLP; S. cerevisiae expressing SARS-CoV PLpro, growth rescue; control for the full effect not named in the record; actives 0.19% (n = 330,000); AID 485353, 2010; Potency, µM (top dose mostly 32.9 µM), without a hit: top-dose activity, positive = growth rescue; active means well fitted rising curve with a large enough effect; inconclusive means small, poorly fitted or top-dose-only effect; inactive means no such curve, though single readings can be large or run the other way; further: 0% is about no effect; nearly all actives have a fitted effect of over 55% in size; growth read by luminescence after 48 h
# Cruzain Triton = qHTS Assay for Promiscuous and Specific Inhibitors of Cruzain (with detergent) | Cruzipain (Trypanosoma cruzi), P25779 | purified cruzain, Z-FR-AMC fluorescence, 0.01% Triton | Potency, µM, without a hit: max response, negative = inhibition, usual class: inhibitors | actives 0.43% (n = 200,000);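 further: plate controls were neutral wells for no effect and buffer without enzyme for full effect; nearly all actives have a fitted effect of over 40% in size; top concentration of the series not given in the record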
# Target sequence (P25779 123-467 limits assumed): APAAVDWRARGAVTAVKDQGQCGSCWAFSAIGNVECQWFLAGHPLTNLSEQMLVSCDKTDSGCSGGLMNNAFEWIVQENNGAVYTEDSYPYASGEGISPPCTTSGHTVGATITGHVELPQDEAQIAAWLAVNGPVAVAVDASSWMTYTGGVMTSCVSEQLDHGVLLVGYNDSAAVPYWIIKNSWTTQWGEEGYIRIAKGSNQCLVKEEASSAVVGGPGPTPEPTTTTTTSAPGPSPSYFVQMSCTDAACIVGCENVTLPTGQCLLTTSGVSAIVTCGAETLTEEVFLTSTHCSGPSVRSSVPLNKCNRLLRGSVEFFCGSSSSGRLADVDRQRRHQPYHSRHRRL
#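 In this qHTS format, compounds are incubated with 1.5 nM cruzain for 15 min at room temperature before 2 uM Z-FR-AMC is added. Release of AMC is followed at 360/450 nm, and progress is taken as the 60 s fluorescence difference.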
# MARV entry inh = qHTS for inhibitors of binding or entry into cells for Marburg Virus; Marburg virus pseudotyped entry inhibition, cell reporter; control for the full effect not named in the record; about a third of the inactives were read at about 46 µM; Potency, µM (doses to about 37.8 µM), inactives show top-dose activity change, negative = inhibition, most hits filed as inhibitors; actives 1.8% (n = 300,000); AID 540276, 2011; active = well fitted inhibition curve with a large enough effect; inconclusive = small, poorly fitted or top-dose-only effect, or effect the other way; inactive = flat fitted curve, though single readings scatter; tested in HEK293 cells; about a fifth of its hits are not listed in these tables; further: on the % scale 0 is the no-effect control and ±100 the full control effect; luciferase read-out
# Lassa entry inh = qHTS for Inhibitors of binding or entry into cells for Lassa Virus | Lassa virus pseudotype entry inhibition, cell reporter; control for the full effect not named in the record | Potency, µM (titrated, usually from 37.9 µM), without a hit: top-dose activity change, negative = inhibition, actives largely listed as inhibitors | actives 1.2% (n = 300,000) | AID 540256, 2011; active means well fitted inhibition curve with a large enough effect; inconclusive means small, poorly fitted or top-dose-only effect, or effect the other way; inactive means flat fitted curve, though single readings scatter; tested in HEK293 cells; further: on the % scale 0 is the no-effect control and ±100 the full control effect; nearly all actives have a fitted effect of over 50% in size; luciferase read-out
# RE007 growth inh = qHTS Assay for Inhibitors of the HIV-1 protein Vpr | S. pombe RE007 Vpr strain, BacTiter-Glo ATP luminescence, 24 h; control for the full effect not named in the record | Potency, µM (doses to about 92.2 µM), for inactives: top-dose activity change, negative = less growth | actives 0.21% (n = 360,000) | AID 651644, 2012; active = well fitted falling curve with a large enough effect; inconclusive = small, poorly fitted or top-dose-only effect; inactive = no such curve, though single readings can be large or run the other way;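 further: on the % scale 0 is the no-effect control and ±100 the full control effect; nearly all actives have a fitted effect of over 50% in size; the assay follows cell death caused by Vpr and the record does not say whether a fall means rescue or toxicity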
#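 Fission yeast strain RE007, carrying one chromosomally integrated HIV-1 vpr copy, was seeded at OD 0.01 in PMG+AL medium with 23 nL pinned compound. After 24 h at 30 °C and 99% humidity, viability was read by BacTiter-Glo luminescence.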
# StopGo reporter = High Throughput Screening for Foot and Mouth Disease Virus Antivirals; Potency, µM (doses to about 57.9 µM), for inactives: at the highest dose signal change, negative = less light; actives 1.2% (n = 410,000); human cells with a luciferase reporter of 2A StopGo recoding; control for the full effect not named in the record; AID 1159524, 2015; active = well fitted falling curve with a large enough effect; inconclusive = small, poorly fitted or top-dose-only effect; inactive = no such curve, though single readings can be large or run the other way; tested in HEK293T cells; further: on the % scale 0 is the no-effect control and ±100 the full control effect; nearly all actives have a fitted effect of over 45% in size; luciferase light after 4 h
# Cruzain noTriton = qHTS Assay for Promiscuous and Specific Inhibitors of Cruzain (without detergent); Cruzipain (Trypanosoma cruzi), P25779; purified cruzain, Z-FR-AMC fluorescence, no detergent; Potency, µM, without a hit: max response, negative = inhibition, actives largely listed as inhibitors; actives 2.3% (n = 200,000);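 further: plate controls were enzyme without inhibitor for no effect and buffer without enzyme for full effect; nearly all actives have a fitted effect of over 40% in size; top concentration of the series not given in the record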
#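 Detergent-free condition (0.00005% Triton X-100) in acetate buffer pH 5.5 with DTT. 1.5 nM enzyme and compound were pre-mixed 15 min, then 2 uM Z-FR-AMC substrate added; reaction progress from fluorescence change between first and third reads (60 s).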
# NS1 function inh = qHTS Assay for Inhibitors of Influenza NS1 Protein Function | Potency, µM (titrated, usually from 46.1 µM), inactives show at the top dose activity, positive = more growth | actives 0.4% (n = 270,000) | AID 2326, 2010 | S. cerevisiae slowed by influenza A NS1, growth recovery by OD600; active means well fitted rising curve with a large enough effect; inconclusive means small, poorly fitted or top-dose-only effect; inactive means no such curve, though single readings can be large or run the other way; further: nearly all actives have a fitted effect of over 50% in size
#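 OD600 was taken as the measure of yeast growth restored by compound in an NS1-expressing S. cerevisiae strain. Cells had been washed out of glucose medium and diluted 1:100 into galactose -URA medium, pH 6.0.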
# Numbers without * were called inactive; ? = inconclusive; nt = no result given; & = joins results of further samples; [ ] = dose if it differs, or a comment. Unless noted, the call rests on the fitted dose curve; in most records, active means well fitted curve in the direction sought with a large enough effect; inconclusive means small, poorly fitted or top-dose-only effect, or another doubt; inactive means no such curve, though single readings can be large; an effect the other way counts as inactive or inconclusive. Potency means the concentration at half of the fitted maximal effect.
SMILES,SARS PLpro yeast,Cruzain Triton,MARV entry inh,Lassa entry inh,RE007 growth inh,StopGo reporter,Cruzain noTriton,NS1 function inh
Cc1ccc(C)c(CSc2nnc(-c3cccnc3)n2N)c1,?,0.8%,1%,5%,-3%,20%,-3%,-18%
Cc1ccc2c(c1)N(CC(=O)NCCCN1CCCCC1)C(=O)c1cccnc1O2,5%,nt,nt,?,5%,3%&-12%,nt,8%
Nc1ccc(-c2cc(-c3ccc(N)cc3)nc(-c3ccccc3)n2)cc1,8%,-1.3%,-2%,?,1%,6%,-9%,20%
CC1CN(CCc2ccccc2)c2nc3c(c(=O)[nH]c(=O)n3C)n2C1 (stereo not drawn),3%,3.1%,21%,?,-5%,-26%,8%,2%
COc1ccc(Cl)cc1NC(=O)CN(C)C(C)C(=O)NC(=O)NC1CCCCC1 (stereo not drawn),2%,nt,?,-11%,0%,?,nt,nt
Nc1nonc1C(=O)N/N=C/c1ccc(-c2cccc([N+](=O)[O-])c2)o1,1%,-11%,-1%,?,-8%,37%[activator],-16%,-5%
Cc1oc(-c2cccc(Cl)c2)nc1CN1CCC(C(=O)NCc2ccco2)CC1,5%,3.4%,?,-8%,-1%,-12%,-2%,-8%
O=C(NC1CCCC1)c1ccc(S(=O)(=O)N2CCOCC2)cc1,-5%,0.8%,8%,?,6%,-2%,4%,5%
O=C(CCN1C(=O)C2CC=C(Cl)CC2C1=O)NC1CCCCC1 (stereo not drawn),2%,2.9%,3%,18%,8%,22%,2%,-4%
CSc1cccc2sc(NC(=O)C3=COCCO3)nc12,8%,nt,21%[46.1 µM],-25%,12%,18%,nt,nt
CCOC(=O)c1cccc(NC(=O)NCc2ccc3c(c2)CCN3C(=O)c2ccccc2)c1,nt,0.5%,nt,?,nt,40µM*,-1%,nt
COc1ccc(C(C)=O)cc1CSc1nc2cc(Cl)ccc2o1,-3%,-7.3%,8%,-13%,-19%,?,-1%,2%
CC(C)(C)C(=O)NC(=S)Nc1ccccc1C(N)=O,-20%,0.6%,20%,5%,29%,-15%,-5%,9%
CC(=O)N1CCc2c(sc(NC(=O)CS(=O)(=O)c3ccc(F)cc3)c2C(N)=O)C1,-1%,nt,9%,-7%[46.1 µM],31%,-1%,nt,nt
Cc1cccc(NC(=O)c2cn(-c3ccccc3)nc2-c2ccccc2)c1C,nt,-5.7%,?,3%[46.1 µM],nt,0%,11%,nt
COc1ccc(-c2noc(-c3ccc(N4CCN(c5ccc(OC)cc5)CC4)c([N+](=O)[O-])c3)n2)cc1,nt,-2.0%,?,17%[46.1 µM],nt,-7%,-1%,nt
O=C1NC(CCc2ccccc2)C(=O)N1Cc1ccc(Br)cc1 (stereo not drawn),1%,nt,?,0%,1%,-19%,nt,nt
CC(C)Oc1cccc(C(=O)C2CCCN(C(=O)c3cc(C(F)(F)F)[nH]n3)C2)c1 (stereo not drawn),1%,nt,-20%[46.1 µM],13µM*,16%,-7%,nt,-5%
CC(Oc1cccc(Cl)c1)C(=O)N(C)CC(=O)Nc1ccc(N2CCOCC2)cc1 (stereo not drawn),-2%,nt,?,-4%,-9%,-14%,nt,nt
Cc1cc(=O)oc2c(C(=O)c3ccccc3)c(OCC(N)=O)ccc12,-1%,nt,nt,nt,-11%,24%,nt,0%
COc1ccccc1OCCN1CSC(=S)N(C)C1,-78%,?,?,7%,?,?,20µM*,-41%
COc1ccc(N(CC(=O)NC2CCCC2)C(=O)CCC(=O)Nc2cc(C)on2)cc1OC,17%,nt,7%[46.1 µM],5%,1%,-10%,nt,0%
COc1ccc(C(=O)COC(=O)c2ccc3c(c2)OCCO3)c(OC)c1,1%,nt,28%,-17%,5%,0%,nt,nt
O=C(CC(=O)c1cccc([N+](=O)[O-])c1)Nc1ccccc1Cl,0%,nt,0%[46.1 µM],-4%,-17%,-6%,nt,nt
CCOC(=O)CC(=O)CSc1nc2sc(C)cc2c(=O)n1Cc1ccco1,4%,-5.7%,-5%,0%,9%,-28%,-16%,-14%
Cc1nn(C)c(C(=O)N2CCN(C(=O)c3ccco3)CC2)c1Br,21%,-2.3%,-4%,-14%,-5%,-6%,7%,-2%
O=C(NNC(=O)C1CCCN(S(=O)(=O)c2ccc3ccccc3c2)C1)C1CC1 (stereo not drawn),-1%,nt,?,4%,10%,-29%,nt,2%
O=C(O)c1cnn(-c2nc(-c3ccc(Cl)c(Cl)c3)cs2)c1C(F)(F)F,-8%,nt,?,9%[46.1 µM],?,2%,nt,-100%
COc1cc(C(C)=O)cc(OC)c1O,nt,3.2%,nt,nt,-7%,-8%&1%,18%,nt
c1ccc(C[n+]2cccc3c4ccccc4ccc32)cc1,-1%,-23%,?,7.1µM*,?,?,-21%,-15%
CCOc1ccc(-c2nnc(SCC(=O)NCc3ccccc3)o2)cc1,nt,-3.9%,3%[46.1 µM],6%[46.1 µM],nt,-12%,-8%,nt
COc1ccc(Nc2c(-c3ccc(Cl)cc3)nc3cnccn23)cc1OC,nt,-13%,?,?,nt,-14%,?,nt
COc1cc2c(cc1OC)CN(CC(=O)Nc1cccc(C)c1)CC2,?,-2.0%,-10%,3%,15%,?,-17%,1%
COc1ccc(NC2c3ccccc3C(=O)N2c2ccccn2)cc1 (stereo not drawn),1%,nt,nt,nt,13%,-27%,nt,-1%
COc1ccc(N2CCN(CC(O)COc3ccccc3[N+](=O)[O-])CC2)cc1 (stereo not drawn),7%,-4.1%,?,7%,0%,2%,-2%,19%
O=C(O)c1ccc(N2C(=O)c3cccc4cccc(c34)C2=O)cc1,3%,nt,-10%,6%,10%,5%,nt,-3%
CN(C)c1ccc(/C=N/NC(=O)c2nonc2N)cc1[N+](=O)[O-],0%,nt,-3%[46.1 µM],3%,-14%,37%[activator],nt,-3%
CCCCn1c(C)cc(C)c(S(=O)(=O)c2ccccc2C)c1=O,-15%,1.5%,-20%,5%,9%,20%,10%,5%
CC(Oc1ccc2c3c(c(=O)oc2c1)CCCC3)C(=O)NCC(O)c1ccccc1 (stereo not drawn),1%,nt,nt,nt,-11%,12%,nt,-6%
Cc1ccc(C)c(C(=O)COC(=O)Cn2c(C)csc2=O)c1,-3%,nt,nt,nt,-12%,8%,nt,-4%
O=C(NCCCNCCCNC(=O)c1ccccn1)c1ccccn1,6%,4.7%,2%,8%,0%,-12%,-4%,-10%
O=C(COc1ccccc1Cl)NC(=O)NC1CCCCC1,-3%,nt,18%,21%,-19%,37%[activator],nt,nt
CC1CCCCN1CCCNC(=O)CN1C(=O)c2cccnc2Oc2ccc(Cl)cc21 (stereo not drawn),-1%,nt,-4%&-4%[46.1 µM],6%&20%[46.1 µM],-3%,-7%&18%,nt,0%
CCOC(CNC(=O)C(=O)Nc1cc2c3c(c1)CC(=O)N3CCC2)OCC,-7%,nt,nt,nt,-9%,3%,nt,10%
O=C(CS(=O)(=O)c1cn(CC(=O)N2CCCC2)c2ccccc12)Nc1ccccc1F,1%,nt,1%,1%,2%,-6%,nt,-2%
Cc1cc2cc3c(cc2nc1SCC(=O)OC(C)C)OCO3,7%,-9.0%,nt,nt,nt,-7%,-7%,3%
COc1ccccc1C(=O)Nc1ccc2c(c1)CN(C(=O)CSC)CC2,0%,nt,?,-19%[46.1 µM],4%,2%,nt,-16%
CCOc1cc(C)c(C(C)C)cc1S(=O)(=O)N1CCN(C)CC1,1%,-1.8%,9%,-4%,1%,40%[activator],-4%,2%
Cc1ccc(S(=O)(=O)NNC(=O)c2snnc2C)cc1,13%,6.3%,18%,-8%,4%,89%[activator],-22%,1%
COc1ccccc1CNC(=O)CN(c1ccc(C)cc1)S(=O)(=O)c1c(C)nn(C)c1C,26%,5.3%,-24%&-24%,-10%,-3%,-1%,?,-10%
# Going on with the list.
SMILES,SARS PLpro yeast,Cruzain Triton,MARV entry inh,Lassa entry inh,RE007 growth inh,StopGo reporter,Cruzain noTriton,NS1 function inh
CC(C)CCn1c(=O)c2sccc2n2c(CCCC(=O)NC(C)c3ccccc3)nnc12 (stereo not drawn),nt,0.3%,nt,2%[46.1 µM],nt,-16%,7%,nt
CCn1c(=O)n(CC(=O)Nc2cccc(OC)c2)c(=O)c2ccccc21,5%,-2.3%,-3%,-3%,9%,-10%,-7%,-9%
CCc1nnc(NC(=O)CSc2nc3c(c(=O)n2C)SC(C)C3)s1 (stereo not drawn),5%,-7.1%,2%,6%,17%,-28%,-13%,-52%
COc1ccc(CC2S/C(=N/N=C/c3ccc(O)cc3)NC2=O)cc1 (stereo not drawn),-1%,nt,8%,1.5µM*,39%,8%,nt,nt
O=C(CCC1CCN(Cc2ccccc2O)CC1)NC1CC1,-3%,nt,nt,nt,-8%,0%,nt,7%
COc1ccc(OC)c(Nc2nc(-c3ccc(O)c(O)c3)cs2)c1,-24%,-11%,?,?,-20%,0%,-17%,7%
CN(C(=O)c1ccc2c(c1)OCO2)C1CCCCC1,21%,nt,12%[46.1 µM],-7%[46.1 µM],2%,26%,nt,3%
COc1cccc(CNC2CCCc3ccccc32)c1OC (stereo not drawn),2%,nt,?,-13%[46.1 µM],-4%,-8%,nt,nt
CC(=O)Nc1ccc(S(=O)(=O)N(Cc2ccccc2)C(C)C)cc1,0%,-0.5%,-7%,?,27%,?,-1%,-21%
COCCCNC(=O)COc1cc(C)c(Cl)c(C)c1,-1%,-2.7%,7%,7%,-15%,1%,9%,-11%
O=C(Nc1ccc(S(=O)(=O)NC2=NCCCCC2)cc1)c1ccc([N+](=O)[O-])s1,-20%,nt,?,?,6%,-1%,nt,nt
CC(C)CCN(C(=O)C1CSC2(C)CCC(=O)N12)c1c(N)n(Cc2ccccc2)c(=O)[nH]c1=O (stereo not drawn),1%,nt,0%,8%[46.1 µM],-2%,?,nt,nt
